Assay outcomes as filed in PubChem.
GIV Gai3 FP – inhibitors of GIV peptide binding to Galpha-i3, primary screen, biochemical, fluorescence polarization, FITC-GIV GBA peptide, rat Galphai3 | Guanine nucleotide-binding protein G(i) subunit alpha-3 (Rattus norvegicus), P08753 | AID 1224905, 2016 | 0.42% of 210,000 active | percent of control (FP), % (concentration not given with the values) | 90 min; active compounds read low; scaled: aluminum fluoride 0%, vehicle 100%;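 active = replicate mean at 85% of control or lower, very high polarization wells dropped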;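 note: wells of about 15 µL received 100 nL stock; the first replicate is given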
Target sequence (P08753 whole entry, looked up): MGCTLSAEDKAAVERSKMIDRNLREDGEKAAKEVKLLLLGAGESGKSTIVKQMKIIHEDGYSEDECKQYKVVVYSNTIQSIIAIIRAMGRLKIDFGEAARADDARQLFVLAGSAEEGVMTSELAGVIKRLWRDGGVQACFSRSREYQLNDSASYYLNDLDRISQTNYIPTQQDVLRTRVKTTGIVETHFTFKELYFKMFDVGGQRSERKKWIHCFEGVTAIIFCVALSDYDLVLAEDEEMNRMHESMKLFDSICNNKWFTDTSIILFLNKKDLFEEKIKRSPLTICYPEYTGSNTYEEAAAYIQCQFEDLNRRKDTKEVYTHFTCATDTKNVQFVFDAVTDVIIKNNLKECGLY
Active calls of the source: *. This is a subset; count on the stated rates, not on these rows.

mol,GIV Gai3 FP
CCn1ccnc(N2CCCCC2)c1=O,106.5
N#Cc1c(C(F)(F)F)cc(-c2ccccc2)nc1SCC(=O)C1CC1,111.4
Cn1c(=O)n(CCC(=O)N2CCCC2)c(=O)c2cc(S(=O)(=O)NCC3CCCO3)ccc21 (centres undefined),107.6
CCOC(=O)c1c(NC(=O)C(C)Sc2nnc(CNC(=O)c3ccc(OC)c(OC)c3)n2C)sc2c1CCC2 (centres undefined),101.4
CCn1c(CCc2ccccc2NS(=O)(=O)c2cccc3nsnc23)nc2ccccc21,105.0
Cc1cc(C)c(C)c(C2=NON3N(C(=O)C45CC6CC(CC(C6)C4)C5)c4ccccc4N23)c1C,108.3
CCOc1ccccc1-n1c(SCC(=O)c2cccc([N+](=O)[O-])c2)nnc1-c1cccnc1,99.9
COC(=O)Nc1ccc(S(=O)(=O)N2CCC(C(=O)O)CC2)cc1,110.7
COc1ccc(Oc2c(C(F)(F)F)oc3cc(OC(=O)c4cccs4)ccc3c2=O)cc1,102.8
CN(C1CCCCC1)S(=O)(=O)c1ccc2c(c1)c(=O)n(CCC(=O)N1CCCC1)c(=O)n2C,103.7

(further entries)
mol,GIV Gai3 FP
CN1CCN(CCNC(=O)C2CCCN(c3nn4c(=O)c5c(nc4s3)CCCC5)C2)CC1 (centres undefined),105.5
CCOC(=O)C1CCCN(S(=O)(=O)c2cc(C(=O)Nc3ccc(Oc4ccccc4)cc3)ccc2F)C1 (centres undefined),110.9
Cc1csc(NC(=O)CSc2nc(-c3cccs3)cc(-c3cccs3)c2C#N)n1,110.3
CS(=O)(=O)Nc1ccc(-c2noc(-c3cccc(Br)c3)n2)cc1,111.0
Cc1nnc2sc(SCC(=O)N3CCOCC3)nn2c1=O,101.1
CN1CCN(c2nc(Nc3ccc4c(c3)OCO4)c3cnn(-c4ccccc4)c3n2)CC1,108.2
COc1ccc(CCNC(=O)CN(c2ccc(Cl)cc2Cl)S(=O)(=O)c2ccccc2)cc1OC,112.3
CCCCOc1ccccc1-n1c(-c2cccc(OC)c2)cn2c3c(=O)n(C)c(=O)n(C)c3nc12,109.2
Cn1nc(C(=O)N2CCCC(C(=O)Nc3ccccc3)C2)c2c1CCN(C(=O)CC1CCCC1)C2 (centres undefined),101.7
CCCS(=O)(=O)N1CCCN(C2=NS(=O)(=O)C(c3ccc(C)c(C)c3)=C2C)CC1,106.4

Other entries follow.
mol,GIV Gai3 FP
N#CC1=C(N)c2ccccc2CC12CCCC2,106.4
Cc1ccc(C)c(-n2ncc3c(N4CCOCC4)ncnc32)c1,97.5
COc1ccc(S(=O)(=O)N2CCCC2c2c(C)noc2C)cc1Cl (centres undefined),94.5
CN1C(=O)N(C)C2(c3ccccc3)Nn3c(s/c(=C\c4cc5c(cc4Br)OCO5)c3=O)=NC12c1ccccc1 (centres undefined),102.5
COC(=O)C1=CN(Cc2ccc(OC)cc2)C=C(C(=O)OC)C1c1ccc(OCc2ccccc2)cc1,105.0
O=C(Cn1cc(-c2nc(-c3ccc(Cl)cc3)no2)ccc1=O)NCC1CCCO1 (centres undefined),104.5
Brc1cccc(-c2nc(-c3ccccc3)c(-c3ccc(Oc4ccccc4)cc3)[nH]2)c1,117.9
O=C(O)c1c[nH]c2ccc(S(=O)(=O)N3CCC(O)CC3)cc2c1=O,105.3
CCc1ccc2c(c1)[C@H]1OCC[C@H]1C(c1ccncc1)N2 (some centres undefined),101.9
Cc1c2c(nn1-c1ccc(SCC(=O)NC(C)C)nn1)CCC2,98.9

Quoted at random: 3 compounds from above
mol,GIV Gai3 FP
O=C(Cn1cc(-c2nc(-c3ccc(Cl)cc3)no2)ccc1=O)NCC1CCCO1 (centres undefined),104.5
Cc1ccc(C)c(-n2ncc3c(N4CCOCC4)ncnc32)c1,97.5
N#CC1=C(N)c2ccccc2CC12CCCC2,106.4

Later entries.
mol,GIV Gai3 FP
CCC(Sc1nc2ccccc2c(=O)n1NC(=O)Cc1ccccc1)C(=O)N1CCOCC1 (centres undefined),112.6
Cc1ccc2c(c1)-c1ccccc1S(=O)(=O)N2C(=O)c1ccccc1,108.1
CC(=O)Oc1ccc(/C=C2N=C(/C=C/c3cccc(Cl)c3Cl)OC\2=O)cc1OC(C)=O,99.3
O=C(CN1CCN(C(=O)c2cccc(Cl)c2)CC1)Nc1nnc(-c2ccccc2)s1,98.2
COc1ccccc1-n1c(CNC(=O)COc2ccccc2)nnc1SCC(=O)N1CCc2ccccc21,107.3
O=S(=O)(Cc1ccc(F)cc1Cl)N1CCc2nc(-c3ccc(F)cc3)ncc2C1,99.1
CN(C)S(=O)(=O)c1cc2c(cc1N1CCOCC1)Oc1ccccc1NC2=O,102.5
O=C(Nc1nc(-c2ccc(Cl)cc2)cs1)c1c(O)c2cccc3c2n(c1=O)CCC3,105.0
O=[N+]([O-])c1ccc(S(=O)(=O)N(CC(O)CN2CCCC2)c2ccccc2)cc1 (centres undefined),106.0
COc1ccc2c(c1)NC1(CCN(C(=O)Nc3cc(Cl)c(OC)cc3OC)CC1)c1cccn1-2,106.6

(listing goes on)
mol,GIV Gai3 FP
COc1cc(C2Nc3ccc4ccccc4c3C3=C2C(=O)CC(C)(C)C3)ccc1OC(C)C (centres undefined),107.9
CC(C)c1ccc(NC(=O)C2CCCN(C(=O)C3Sc4ccccc4NC3=O)C2)cc1 (centres undefined),106.2
O=S(=O)(c1ccc(-c2cnc(C3CC3)o2)s1)N1CCN(c2cccc(Cl)c2)CC1,101.6
CC1=C(C(=O)OCc2ccccc2)C(c2ccsc2)C(C#N)=C(N)O1 (centres undefined),108.7
c1cc(-c2nc(-c3ccc(-c4csc(C5CC5)n4)cc3)no2)cs1,107.5
CCN1CCC2(CC1)N=C(c1ccc3c(c1)OCO3)CC(c1cc(Cl)ccc1O)N2 (centres undefined),102.3
COc1ccc(C(=O)c2sc3nc(C)cc(C(F)(F)F)c3c2N)cc1OC,62.5*
COCCNC(=O)CSc1nc2c(sc(=S)n2-c2ccccc2C)c2nc3ccccc3n12,105.9
COc1ccc(N=C2SC(C(=O)Nc3ccccc3)CC(=O)N2CCc2ccc(OC)c(OC)c2)cc1 (centres undefined),118.1
CCn1c(C)c(-c2nc(C3CC3)no2)c(S(=O)(=O)N2CCCC2)c1C,108.9

Continuation:
mol,GIV Gai3 FP
CC(C)Cc1csc(-c2csc(S(=O)(=O)Nc3cccc(Cl)c3)c2)n1,98.1
CC1(O)N(CCN)C(=O)OC12CCCCC2 (centres undefined),107.0
COc1ccc(OC)c(C2NC(=S)NC(C)=C2C(=O)Nc2ccc(Cl)cc2)c1 (centres undefined),108.2
Cc1ccc2c(c1)C(COc1ccccc1)=NNC(c1ccc(Br)cc1)=N2,104.4
CC1(C)CC(=O)C(C(C2=C(O)CC(C)(C)CC2=O)c2cccc(OCc3ccccc3)c2)C(=O)C1 (centres undefined),113.1
CCOCCn1c2ccccc2c2nc3ccccc3nc21,105.7
COCCCNc1c(-c2ccc(N(C)C)cc2)nc2sc3ccccc3n12,99.1
COc1ccc(NS(=O)(=O)c2ccc(/C=C\c3onc(C)c3NC(C)=O)cc2)c(OC)c1,102.7
O=C(NCCc1c[nH]c2ccccc12)C1CCN(c2ccncc2)CC1,104.7
Cc1[nH]c(C)c(S(=O)(=O)N2CCN(CC(C)C)CC2)c1-c1nnc(C2CCC2)o1,104.6

The listing continues:
mol,GIV Gai3 FP
O=C(NCc1ccccn1)C1CCN(S(=O)(=O)c2ccc(-c3noc(C4CC4)n3)cc2)CC1,107.5
COc1cc(C2CC(=O)Nc3c2cnn3-c2nc3ccccc3s2)ccc1O (centres undefined),101.7
CC1CCCCN1S(=O)(=O)c1ccc2c(c1)C(C)(C)CN2CC(=O)N1CCCC1 (centres undefined),106.5
COc1ccc(S(=O)(=O)Nc2cc(C(=O)N3CCCCC3)ccc2N2CC3CC(C2)c2cccc(=O)n2C3)cc1 (centres undefined),102.5
COc1ccccc1N1CCN(C(=O)CSc2nc3ccccc3c(=O)n2CCC(=O)NC2CCCCC2)CC1,101.6
CCCN(CCC)S(=O)(=O)c1cc(-c2nc(-c3ccccc3)no2)sc1C,107.9
CN1C(=O)N(C)C(c2ccc3c(c2)OCO3)C2=C1CC(C)(C)CC2=O (centres undefined),102.0
COc1cccc(N/C(SCc2ccccc2F)=C(/C#N)C(=O)NCc2cccs2)c1,105.4
Cc1nn(-c2nc3ccccc3n2C)c2c1C(c1cccc(F)c1F)CC(=O)N2 (centres undefined),105.5
O=C(c1nc(C2CCCC2)nc2c1OCCO2)N1CCCCC1,104.1

Continuation.
mol,GIV Gai3 FP
CCc1ccc(N/C(SC)=C(/C#N)C(N)=O)cc1,109.0
O=C(CSc1ncnc2c1[nH]c1ccc(F)cc12)N1CCc2ccccc2C1,97.1
CCOC(=O)c1c(NC(=O)C(C)Sc2nnc(CNC(=O)c3ccco3)n2Cc2ccccc2)sc2c1CCC2 (centres undefined),104.6
CC1CCCC2(C1)NC(=S)N(c1ccc(Cl)cc1)N2 (centres undefined),108.9
CCOC(=O)N1CCN(C(=O)c2ccc3c(c2)[nH]c(=S)n2c4ccccc4nc32)CC1,103.7
COc1ccc(OC)c(C2NC(=O)NC(C)=C2C(=O)Nc2ccccc2C)c1 (centres undefined),103.8
Cc1ccc(CNC(=O)c2cc(-c3ccccn3)nc3ccc(S(=O)(=O)N4CCOCC4)cc23)cc1,102.2
Cc1cc(-c2ccc(=O)[nH]n2)cc(S(=O)(=O)N(Cc2ccccc2)Cc2ccccc2)c1C,101.2
O=C(Nc1ccccc1Br)NC(C(=O)N1CCc2ccccc21)c1ccccc1 (centres undefined),97.8
CN(C)c1ccc(N2C=C(C#N)S(=O)(=O)c3ccc(Cl)cc32)cc1,101.5

The list goes on:
mol,GIV Gai3 FP
CCOC(=O)c1c(S(=O)(=O)N2CCC(C(=O)Nc3ccc(NC(C)=O)cc3)CC2)c(C)n(C)c1C,100.9
CC(C)CN1CCN(S(=O)(=O)c2cc(-c3nnc(C4CC4)o3)co2)CC1,106.2
O=C(CSc1nnc2c3sc(N4CCCC4)nc3ncn12)Nc1ccc(F)cc1Cl,103.7
Cc1c(-c2nnc(C3CC3)o2)c(S(=O)(=O)N2CCN(C(C)C)CC2)c(C)n1C,108.0
COc1ccc(NC(=O)c2sc3nc4c(c(-c5ccc(C)o5)c3c2N)CCCC4)cc1,116.8
O=C(CCc1nc(CS(=O)(=O)c2ccc(Cl)cc2)no1)NC1CCCC1,105.2
Cc1nc(N2CCOCC2)c2c(C)c(C(=O)Nc3ccc(Cl)cc3)sc2n1,101.3
CC(C)c1c(C#N)c(N)nc2sc(C(=O)c3ccc([N+](=O)[O-])cc3)c(N)c12,120.9
CC(C)CCNCC(O)Cn1c2ccc(Cl)cc2c2cc(Cl)ccc21 (centres undefined),105.1
CC(C(=O)NCCCN1CCCC1)C1CCN(S(=O)(=O)c2cccs2)CC1 (centres undefined),103.8

Next compounds.
mol,GIV Gai3 FP
CC(C)C(=O)N1CC(C)(C)c2cc(S(=O)(=O)N3CCCC3)ccc21,109.6
O=C(CCc1nc(CSc2nc3ccccc3o2)no1)Nc1cccc(Br)c1,106.9
CCOc1ccccc1N1CCN(C(=O)CCc2nnc3ccc(-c4ccc(Cl)cc4)nn23)CC1,105.3
CCOC(=O)c1c(NC(=O)C(C)Sc2nnc(CNC(=O)c3ccco3)n2-c2ccccc2OC)sc2c1CCC2 (centres undefined),104.6
Cc1cccc(NC(=O)Cn2cccc2-c2nc(-c3ccccc3)cs2)n1,103.2
CCCCCn1c(SCc2ccccc2F)nc2cc(C(=O)N3CCC(C(N)=O)CC3)ccc2c1=O,111.5
CC(=O)Nc1ccc(-c2noc(C3CCCN(C(=O)C4CCCCC4)C3)n2)cc1 (centres undefined),101.6
O=C(CCc1nc(CSc2nnc(-c3ccncc3)o2)no1)Nc1cc(F)cc(F)c1,105.0
O=C(NCc1ccccc1Cl)c1nnc2ccc(-c3ccccc3)nn12,106.8
COc1ccc(C2C3=C(CC(C)(C)CC3=O)Nc3ccccc3N2C(C)=O)cc1 (centres undefined),97.0

Remaining list, next part.
mol,GIV Gai3 FP
Cc1ccc(-c2noc(CCc3nnc4ccc(N5CCN(c6ccccc6)CC5)nn34)n2)cc1,100.0
COC(=O)C1=C(C(=O)OC)SC2(S1)C(C(=O)OC)=C(C(=O)OC)SC1=C2c2cc(OC)ccc2N(C(C)=O)C1(C)C,103.5
COc1ccccc1N1CCN(C(=O)c2cnn3c(C)c(Cc4ccccc4Br)c(C)nc23)CC1,104.5
O=S(=O)(c1ccc2c(c1)Cc1cc(S(=O)(=O)N3CCCCC3)ccc1-2)N1CCCCC1,104.3
CCc1ccc(N2CC(O)(c3ccc(OC)c(OC)c3)[N+]3=C2SCCC3)cc1 (centres undefined),105.6
O=C(CCC(=O)Nc1nc(-c2cc3ccccc3oc2=O)cs1)NCc1ccccc1Cl,111.5
Cc1cccc(-c2noc(Cc3nc(-c4ccc(F)cc4)cs3)n2)c1,114.4
CC(=O)Nc1ccc(N2C(=O)CC(NCc3ccc(F)cc3)C2=O)cc1 (centres undefined),98.2
CC1(C)OC2OC(C(=O)NNC(=O)CCCCCNC(=O)c3ccccc3)C3OC(C)(C)OC3C2O1 (centres undefined),106.0
COc1ccc(C2/C(=C(\O)c3ccc(Br)cc3)C(=O)C(=O)N2c2cccc(C(F)(F)F)c2)cc1 (centres undefined),110.7
